# Screening data: PubChem, several laboratories
# Yeast UUG start: modulators of start codon recognition fidelity in yeast; S. cerevisiae UUG-firefly luciferase reporter, luminescence/redox ratio; activity score, % at 18.7 µM; 350,000 tested, 0.13% active; AID 602363;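 active means replicate mean at a twofold rise or more, about +100% in these data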;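 further: firefly luciferase made from a UUG start codon reports start codon fidelity; reporter light over untreated wells divided by growth signal over untreated wells; some hits fall short of that in this replicate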
# Rce1 inhib: yeast Ras-converting enzyme inhibition | yeast membranes, quenched prenylated peptide cleavage fluorescence | calls only | 290,000 tested, 0.27% active | Q03530;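 active means fall in fluorescence gain of 50% or more versus controls, with final raw signal at or below 3038400; inconclusive means same 50% fall but final raw signal above 3038400; inactive means fall in fluorescence gain under 50%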;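 further: plate controls were neutral control wells for no effect and wells lacking membranes for full effect; tested at 10 µM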
# Target sequence (Q03530 whole entry, looked up): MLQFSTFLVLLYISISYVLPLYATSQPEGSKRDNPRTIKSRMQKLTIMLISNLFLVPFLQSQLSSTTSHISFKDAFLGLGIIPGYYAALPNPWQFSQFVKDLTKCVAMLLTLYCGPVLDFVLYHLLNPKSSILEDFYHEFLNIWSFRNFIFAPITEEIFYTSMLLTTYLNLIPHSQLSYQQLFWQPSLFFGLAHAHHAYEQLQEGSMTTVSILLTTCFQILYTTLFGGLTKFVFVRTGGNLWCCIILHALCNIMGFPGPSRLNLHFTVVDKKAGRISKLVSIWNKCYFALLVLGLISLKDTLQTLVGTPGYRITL
# CSC inhib: cancer stem cell inhibition | 300,000 tested, 1.1% active | cancer stem cell-like cells viability, luminescence | AID 2717 | inhibition, % at 7.5 µM;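 active means mean at 75% or more and at least half the replicates too; inconclusive means mean and replicates disagree; tested in HMLE shEcad cells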;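 further: 0% = median of negative and 100% = median of positive control wells; the first replicate is given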
# HIV Env fusion: HIV envelope-mediated fusion inhibition; 360,000 tested, 1.1% active; HeLa-JRFL Env/CEM21 cell fusion, luciferase; inhibition, % at 12.3 µM;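 active means mean replicate inhibition score of at least 50 and every replicate individually at or above 50; inconclusive means only one of the two criteria met; inactive means mean below 50 and not all replicates reaching 50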;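 further: 0% = plate neutral controls and 100% = maraviroc near 300 nM; one replicate is shown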
# eIF4H inh: inhibitors of RNA binding by human eIF4H | 290,000 tested, 0.94% active | eIF4H fluorescence polarization binding assay | AID 2012 | inhibition, % at 35 µM | Q15056;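 active means 50% or more with normal probe brightness, or confirmed in later tests; inconclusive means above 50% with abnormal brightness, or retests that disagree; inactive means below 50% or failed in later tests; about a fifth of its hits are not listed in these tables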;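 further: calls also rest on retests at 20 µM and on dose response follow-up; 0% = protein and probe with vehicle and 100% = probe without protein; strong numbers were not always called active; many hits fall short of the cut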
# PABP FP inh: blocks human PABP binding to poly(A) RNA; fluorescence polarization; inhibition, % at 35 µM; 290,000 tested, 1% active;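 active means 50% or more with normal probe brightness, or confirmed in later tests; inconclusive means above 50% with abnormal brightness, or retests that disagree; inactive means below 50% or failed in later tests; about a fifth of its hits are not listed in these tables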;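 further: calls also rest on retests at 20 µM and on dose response follow-up; controls were probe without protein and protein plus probe with vehicle; some compounds called inactive have numbers as strong as hits; many hits fall short of the cut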
# Target sequence (P11940 whole entry, looked up): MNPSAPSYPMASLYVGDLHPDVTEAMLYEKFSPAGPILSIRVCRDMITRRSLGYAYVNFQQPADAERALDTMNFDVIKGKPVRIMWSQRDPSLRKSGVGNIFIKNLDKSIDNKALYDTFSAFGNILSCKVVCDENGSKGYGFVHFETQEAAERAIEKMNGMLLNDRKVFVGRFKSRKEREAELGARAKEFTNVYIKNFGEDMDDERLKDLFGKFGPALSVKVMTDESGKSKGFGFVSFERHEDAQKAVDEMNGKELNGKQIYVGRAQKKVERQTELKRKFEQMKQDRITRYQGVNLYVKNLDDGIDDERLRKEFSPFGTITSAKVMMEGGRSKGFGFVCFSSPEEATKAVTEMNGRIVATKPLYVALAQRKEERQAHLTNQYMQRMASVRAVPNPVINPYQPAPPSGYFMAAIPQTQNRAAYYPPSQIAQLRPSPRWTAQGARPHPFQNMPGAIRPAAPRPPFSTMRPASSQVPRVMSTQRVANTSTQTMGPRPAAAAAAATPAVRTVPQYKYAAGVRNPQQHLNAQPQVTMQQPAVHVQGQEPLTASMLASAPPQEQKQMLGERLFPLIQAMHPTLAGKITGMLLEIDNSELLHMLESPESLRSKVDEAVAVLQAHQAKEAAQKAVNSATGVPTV
# MT1-MMP act inh: blocks activation of human MT1-MMP; HT1080 RFP-PRO-GFP cells, GFP/RFP ratio fluorescence, overnight; percent of plate control window, DMSO zero; GFP/RFP ratio change, % at 20 µM; 360,000 tested, 0.061% active; AID 651647;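 active means GFP/RFP ratio change of at least 30% with cell ATP level not reduced by more than half and red fluorescence within 50% of control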; further: strong numbers were not always called active
#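 Assay system: HT1080 cells carrying an RFP-PRO-GFP reporter | Dosing: Single dose of 20 µM compound, 1% DMSO final | Incubation: Cells overnight before dosing, compound overnight, 37 °C, 5% CO2 | Evaluation: GFP/RFP fluorescence ratio | Control set: DMSO and RFP-L50D-GFP cell wells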
# MT1-MMP act inh RFP: also measured in MT1-MMP act inh; calls as there; RFP signal change, %; measured here: RFP expression control read;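 0 = vehicle wells; hits needed this value within 50% of zero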
# An asterisk follows results filed as active; i = inactive; ? = inconclusive; . = no result given; & = joins results of further samples; [ ] = another dose, or the depositor's remark. This is a subset (hit frequency here may not be typical).
1) Cn1c(CC(=O)Nc2ccccc2F)nnc1SCC(=O)Nc1nncs1
2) CCOC(=O)C1=C(COC(=O)COc2ccc(C(=O)CC)cc2)NC(=O)NC1C (stereo not drawn)
3) O=C(CN(c1ccc(Cl)cc1)S(=O)(=O)c1ccccc1)N/N=C/c1ccco1
4) Cc1cc(C(=O)OCC(=O)NCCc2ccc(S(N)(=O)=O)cc2)c2ccccc2n1
5) CCOc1cccc(C(=O)Nc2ccc3c(c2)OCCO3)c1
6) CC(NC(=O)COC(=O)Cc1ccc(-c2ccccc2)cc1)c1ccccc1 (stereo not drawn)

Screen / compound no.,1,2,3,4,5,6
Yeast UUG start,-16,.,-5,-15,-45,.
Rce1 inhib,i,i,i,.,i,i
CSC inhib,-17,-21,-1,-3,9,-16
HIV Env fusion,-4,-3,.,-2,-89,.
eIF4H inh,-7,.,2,.,0,0
PABP FP inh,-8,.,14,.,-3,-4
MT1-MMP act inh,1,4,6,-3,2,4
MT1-MMP act inh RFP,2,6,4,1,-1,5

7) CC(Sc1nc2cc([N+](=O)[O-])ccc2n1-c1cccc(C(F)(F)F)c1)C(=O)NC(N)=O (stereo not drawn)
8) Cc1cccc(-c2noc(CCCOc3ccc(Cl)cc3Cl)n2)c1
9) Cn1c(=O)n(CCCO)c(=O)c2c1nc1n2CCCN1Cc1ccccc1
10) Cc1ccc(N2C(=O)CSC2c2ccccn2)cc1Cl (stereo not drawn)
11) COc1ccc(CCN(C)C(=O)c2cnc(C)cn2)cc1OC
12) Cc1cc(S(=O)(=O)N2CCCC2)ccc1OCC(=O)N1CCC(C(N)=O)CC1

Screen / compound no.,7,8,9,10,11,12
Yeast UUG start,-9,-11,-12,-13,-26,-18
Rce1 inhib,i,i,i,i,i,i
CSC inhib,1,13,-1,.,-13,-17
HIV Env fusion,.,-8,14,.,13,8
eIF4H inh,5,-5,-8,-2,-4,-6
PABP FP inh,0,-1,0,5,4,-1
MT1-MMP act inh,7,1,4,2,1,-4
MT1-MMP act inh RFP,0,2,1,-1,5,-8

13) C/C(=C\c1cc2ccccc2o1)C1Nc2cccc3cccc(c23)N1
14) C#CCNC(=O)C1CCN(c2ccc(S(=O)(=O)N3CCOCC3)cc2Cl)CC1
15) C=C1c2cc(C)c(C)cc2NC(=O)N1c1ccccc1
16) COC(=O)C1C2C=CC(C3CC23)C1C(=O)OCC(=O)c1ccccc1 (stereo not drawn)
17) CC(=O)Oc1ccc(Cl)cc1/C=C/c1cc(OC(C)=O)c2ccccc2n1
18) COCCN(C(=O)CNC(=O)c1ccco1)C(C(=O)NC1CCCC1)c1ccccc1 (stereo not drawn)

Screen / compound no.,13,14,15,16,17,18
Yeast UUG start,3,-15,-7,1,.,7
Rce1 inhib,.,i,i,i,i,i
CSC inhib,19,-4,-8,-7,9,-2
HIV Env fusion,4,7,26,-34,27,25
eIF4H inh,.,4,-8,-3,-1,-16
PABP FP inh,.,8,2,6,-9,4
MT1-MMP act inh,13,3,-3,4,.,0
MT1-MMP act inh RFP,3,-1,0,5,.,3

19) C[C@@H]1CN([C@@H](C)CO)C(=O)CCCn2nncc2CO[C@H]1CN(C)C(=O)Nc1cccc(Oc2ccccn2)c1
20) NC(=O)Nc1ccc(Oc2ncc(C(F)(F)F)cc2Cl)cc1
21) CCOC(=O)c1c(-c2ccc(C)o2)csc1NC(=S)NC(=O)c1ccc(F)cc1
22) CN(C(=O)COn1nnc2ccc(S(=O)(=O)N3CCOCC3)cc21)c1ccccc1
23) CCc1ccc(NC(=O)c2ccccc2Br)cc1
24) Cc1ccccc1OCCC(=O)N(CC(C)C)c1c(N)n(Cc2ccccc2)c(=O)[nH]c1=O

Screen / compound no.,19,20,21,22,23,24
Yeast UUG start,1&-6&5,.,.,-10,-14,-6
Rce1 inhib,.,i,i,i,i,.
CSC inhib,.,-3,15,-3,-1,.
HIV Env fusion,11[16.7 µM],-5,4,-1,-38,10
eIF4H inh,.,-11,6,.,-15,.
PABP FP inh,.,-1,4,.,20,.
MT1-MMP act inh,2,2,1,-1,5,0
MT1-MMP act inh RFP,5,0,-4,0,3,-3

25) CC1CCCC(NC(=O)COc2ncnc3ccccc23)C1C (stereo not drawn)
26) O=C(CCNC(=O)C1CCN(S(=O)(=O)c2ccccc2)CC1)NCc1ccc(Cl)cc1
27) C=CCNC(=O)CCC(=O)NNc1nc2ccccc2c2nc(-c3ccccc3)nn12
28) O=C(c1nc2ncccn2n1)N1CCN(c2ccc(F)cc2)CC1
29) CC(C)C[C@H](NC(=O)N1CCn2c1nc1ccccc12)C(=O)N1CCCCC1
30) Cc1ccc(-c2nnc(SCC(=O)Nc3sc(C)c(C)c3C#N)n2C)cc1

Screen / compound no.,25,26,27,28,29,30
Yeast UUG start,-13,-2,.,-22,-7,-3
Rce1 inhib,.,i,i,i,i,i
CSC inhib,12,-11,13,10,-10,18
HIV Env fusion,7,-10,-5,.,8,.
eIF4H inh,.,-9,2,-14,-6,12
PABP FP inh,.,-1,-5,-7,-2,3
MT1-MMP act inh,0,1,10,6,-1,2
MT1-MMP act inh RFP,2,-2,4,4,1,3

31) COc1cccc(C(=O)Nc2cccc(-c3nc4ncccc4o3)c2C)c1
32) CCn1nc(C)c(/C=N/NC(=O)Cc2ccc(Cl)cc2)c1C
33) Nc1nonc1-c1nc2ccccc2n1CC(=O)N/N=C\c1ccc(-c2ccc(Cl)cc2)o1
34) CC(C)CC(=O)NC(=S)Nc1cc(C(F)(F)F)ccc1N1CCOCC1
35) O=C(NCC1CCCO1)C1CCN(C2CCN(C(=O)CC3CCCC3)CC2)CC1 (stereo not drawn)
36) Cc1cc(Cl)ccc1C(=O)C1CCCN(C(=O)CCN2CCCO2)C1 (stereo not drawn)

Screen / compound no.,31,32,33,34,35,36
Yeast UUG start,-10,-12,-8,-17,10,7
Rce1 inhib,i,i,i,i,.,i
CSC inhib,0,3,-3,17,-5,-10
HIV Env fusion,.,.,.,29,0,5
eIF4H inh,-2,-5,11,3,8,-1
PABP FP inh,2,-4,-1,-6,-4,1
MT1-MMP act inh,5,8,3,-18,6,-1
MT1-MMP act inh RFP,3,1,2,-20,4,-2

37) Cc1nn(CC(=O)Nc2nccs2)c(C)c1[N+](=O)[O-]
38) CCCN(C(=O)/C=C/c1ccc(S(=O)(=O)N(CC)CC)cc1)C1CCS(=O)(=O)C1 (stereo not drawn)
39) CCN(CC)S(=O)(=O)c1ccc(NC(=O)Cn2c(=O)sc3ccccc32)cc1
40) CCOc1ccc(C(=O)Nc2nc(C)c(C(=O)OC)s2)cc1
41) Cc1ccccc1-c1nnc(-c2ccc(Br)cc2)o1
42) CCN(CC)C(=O)c1ccc(CS(=O)(=O)c2ccc(OC)cc2)o1

Screen / compound no.,37,38,39,40,41,42
Yeast UUG start,.,-7,.,-1,.,-10
Rce1 inhib,i,.,i,i,i,i
CSC inhib,-10,-17,-16,-2,.,-3
HIV Env fusion,1,1,?,-146,-279,4
eIF4H inh,-7,.,2,-6,-10,12
PABP FP inh,-8,.,-7,-31,-5,0
MT1-MMP act inh,4,0,5,4,-5,-3
MT1-MMP act inh RFP,5,4,2,-1,-1,-4

43) Oc1ccccc1CN1CCN(C(c2ccccc2)c2ccccc2)CC1
44) COc1cccc(CNC(=O)CCC2CCCN(C(=O)c3ccc(F)c(Cl)c3)C2)c1 (stereo not drawn)
45) CC1CCN(C(=O)CCNC(=O)c2ccccc2Cl)CC1
46) COc1ccccc1N1CCN(CC(O)COc2ccc(C)c(C)c2)CC1 (stereo not drawn)
47) CC(C)C1CC(C(F)(F)F)n2nc(C(=O)O)cc2N1 (stereo not drawn)
48) COc1cc(C(=O)NCC(=O)NCCN2C(=O)S/C(=C\c3ccc4c(c3)OCO4)C2=O)cc(OC)c1OC

Screen / compound no.,43,44,45,46,47,48
Yeast UUG start,6,-14,-20,-11,.,5
Rce1 inhib,i,i,i,i,i,i
CSC inhib,29,5,-9,-9,-13,-5
HIV Env fusion,-10,-1,-3,-3,12,-8
eIF4H inh,4,-4,-3,0,-4,.
PABP FP inh,7,29,2,-2,-2,.
MT1-MMP act inh,3,3,-3,3,1,-1
MT1-MMP act inh RFP,-4,-9,1,1,1,0

49) O=C(NNC(=O)c1ccc(Br)s1)c1cccc(Cl)c1
50) CCOc1ccc2nc(SCC#N)c(C#N)cc2c1
51) COC(=O)c1c(NC(=O)c2ccc(OC(C)C)cc2)sc2c1CC(C)(C)NC2(C)C
52) COc1ccc(C2=NOC(C(=O)NCc3cccnc3)C2)cc1 (stereo not drawn)
53) Cc1ccc(-c2nnc(CSc3nc(C(C)C)nc4sc(C)c(C)c34)o2)cc1
54) O=C(N/N=C/C(Cl)=C/c1ccc([N+](=O)[O-])cc1)C(=O)Nc1cccc(C(=O)O)c1

Screen / compound no.,49,50,51,52,53,54
Yeast UUG start,-29,-20,-10,.,.,-24
Rce1 inhib,.,i,i,i,i,i
CSC inhib,.,24,53,-13,55,17
HIV Env fusion,-11,-27,-15,-8,.,-18
eIF4H inh,.,-7,8,-2,-17,6
PABP FP inh,.,12,7,-4,-7,8
MT1-MMP act inh,3,-7,.,1,5,2
MT1-MMP act inh RFP,-2,-2,.,1,1,0

55) C/C(=N\Nc1ncc(Cl)cc1Cl)c1cccs1
56) Cc1cn(C(=O)c2cccc(Br)c2)c(C)n1
57) CCCn1c(N)c(C(=O)CSc2nnc3n2CCCCC3)c(=O)n(C)c1=O
58) CCN1C(=O)[C@H]2[C@@H](c3ccc(-c4cccc(Cl)c4)c(OC)c3)N3CCC[C@@]3(C(=O)OC)[C@H]2C1=O
59) O=C(CN(Cc1ccccc1)S(=O)(=O)c1ccccc1)N/N=C/c1ccccc1[N+](=O)[O-]
60) O=C(NCC1CCCO1)c1c(O)nc2sccn2c1=O (stereo not drawn)
61) COc1ccc(C(c2nnnn2C2CCCC2)N2CCC(C)CC2)c(OC)c1 (stereo not drawn)
62) COc1ccccc1NC(=O)C1=C(C)NC(=O)NC1c1cccc(OC)c1OC (stereo not drawn)
63) COc1cc(CN(C)c2ncnc3sccc23)ccc1OC(F)F

Screen / compound no.,55,56,57,58,59,60,61,62,63
Yeast UUG start,.,.,-10,-15,-11,-7,-9,-18,-14
Rce1 inhib,i,i,.,.,i,i,i,i,i
CSC inhib,9,-9,.,.,2,5,10,-8,20
HIV Env fusion,.,.,-7,-15,.,.,.,.,9
eIF4H inh,-7,0,.,.,-2,.,-3,-8,10
PABP FP inh,-8,1,.,.,-5,.,-7,4,7
MT1-MMP act inh,-3,6,-3,-11,-5,2,-1,-1,3
MT1-MMP act inh RFP,-3,2,-1,-8,-7,3,-1,2,-16
